BasE inh: BasE siderophore enzyme inhibitors, primary screen, biochemical, Acinetobacter baumannii ATCC 17978, fluorescence polarization; inhibition, % (test concentration not listed); AID 485350, 2010; actives 0.1% (n = 84,000); purified BasE, fluorescence polarization binding displacement;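 active = both replicates above 25% with normal brightness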;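 note: 0% = negative plate control signal and 100% = positive plate control signal; stock transfer was 100 nL into about 30 µL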
KSHV LANA nucl: inhibitors of KSHV LANA-nucleosome binding, primary screen, biochemical, fluorescence polarization, FITC-LANA1-23, chicken nucleosomes | FITC-LANA1-23 / chicken nucleosome fluorescence polarization; stronger effect = lower value | z-score (no concentration beside the values) | actives 0.3% (n = 51,000) | AID 720717, 2013;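 active = both repeat wells score below -2 in polarization z-score versus plate sample wells, excluding overly bright wells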;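 note: 100 nL library stock added to about 30 µL; numbers are from one replicate; some results filed as inactive read as strong as hits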
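Material: Purified chicken nucleosomes with FITC-labelled LANA N-terminal peptide (1-23) | Reagent: 50 nM FITC-LANA1-23 probe | Medium: TEN-BT buffer, pH 7.5 | Times: 10–45 min incubation at room temperature | Detection: Fluorescence polarization | Replication: Duplicates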
* marks the source's active call; other numbers are inactive results; x = no result given; & = joins results of further samples.

SMILES	BasE inh	KSHV LANA nucl
CC[N+](C)(CC)CCOC(=O)C(O)(c1ccccc1)C1CCCCC1 (configuration not stated)	x	1.3
Oc1ccc(/C=C/c2cc(O)cc(O)c2)cc1	22&23&1.0	-0.081&0.72&0.065&0.72
COc1cc2c(cc1OC)C(=O)C(CC1CCN(Cc3ccccc3)CC1)C2 (configuration not stated)	x	-0.32&-0.36
CCC(C)n1ncn(-c2ccc(N3CCN(c4ccc(OCC5COC(Cn6cncn6)(c6ccc(Cl)cc6Cl)O5)cc4)CC3)cc2)c1=O (configuration not stated)	x	0.55&-0.13
c1ccc(CN(CC2=NCCN2)c2ccccc2)cc1	-1.1&-0.4	0.6&-1.2&0.67
COc1ccccc1N1CCN(CCCNc2cc(=O)n(C)c(=O)n2C)CC1	-0.3&1.1	0.38&0.1&-0.13
CC(COc1ccccc1)NC(C)C(O)c1ccc(O)cc1 (configuration not stated)	-48	0.38
CC(=O)[C@H]1CCC2C3C[C@H](C)C4=CC(=O)CC[C@]4(C)C3[C@@H](O)C[C@@]21C (some centres not stated)	0.0	0.052&0.35
O=C(c1ccc(F)cc1)C1CCN(CCn2c(=O)[nH]c3ccccc3c2=O)CC1	-1.7&-0.2	-0.97&-0.48&0.2&-0.066
Cc1nc2ccccn2c(=O)c1CCN1CCC(C(=O)c2ccc(F)cc2)CC1	0.6&-0.7	-0.12&-0.006&-0.23&0.36
CC(COc1ccccc1)NC(C)[C@H](O)c1ccc(O)cc1 (some centres not stated)	2.7	0.25&-0.87
Cn1c(=O)c2c(ncn2CC2OCCO2)n(C)c1=O	x	0.45
C1CCC(C(CC2CCCCN2)C2CCCCC2)CC1 (configuration not stated)	-5.2&-6.4	-0.21&-0.22&1
C[C@@H](N)C1CCC(C(=O)Nc2ccncc2)CC1 (some centres not stated)	1.2	-0.23
c1ccc(CC2=NCCN2)cc1	-1.7&0.7	0.31&0.27&-1.1
O=S(=O)(c1cccc2cnccc12)N1CCCNCC1	-2.5	-0.32&-0.19
CC(=O)c1ccc2c(c1)N(CCCN(C)C)c1ccccc1S2	0.1	0.29&0.22
COc1cc2c(cc1OC)C(=O)CC2	-0.5	0.86
COc1ccc(C(=O)CC(=O)c2ccc(C(C)(C)C)cc2)cc1	0.2	0.022&0.26
CC(=O)O[C@]1(C(C)=O)CCC2C3C=C(Cl)C4=CC(=O)[C@@H]5C[C@@H]5[C@]4(C)C3CC[C@@]21C (some centres not stated)	0.3	-0.16&0.27

A different layout for some results above.
> CC(=O)c1ccc2c(c1)N(CCCN(C)C)c1ccccc1S2
  BasE inh: 0.1
  KSHV LANA nucl: 0.29&0.22

> COc1cc2c(cc1OC)C(=O)CC2
  BasE inh: -0.5
  KSHV LANA nucl: 0.86

The list goes on.
SMILES	BasE inh	KSHV LANA nucl
C=CC1=C(C(=O)O)N2C(=O)[C@@H](NC(=O)/C(=N\O)c3csc(N)n3)[C@H]2SC1 (stereo in doubt)	0.7	0.19&0.31
COc1ccc(/C=C/C(=O)Nc2ccccc2C(=O)O)cc1OC	x	0.29&0.35&-0.95
O=C(CCN1CCC(c2ccccc2)C1)c1ccc2c(c1)OCCO2 (configuration not stated)	-3.7	0.014
CC(=O)c1ccc(S(=O)(=O)NC(=O)NC2CCCCC2)cc1	-2.7	-0.51&-0.15
CN(C(=O)CCCOc1ccc2[nH]c(=O)ccc2c1)C1CCCCC1	x	-0.69
CN1CCN(C(c2ccccc2)c2ccccc2)CC1	-1.3&-4.8	-0.002&0.31&0.91
CC1COc2c(N3CCN(C)CC3)c(F)cc3c(=O)c(C(=O)O)cn1c23 (configuration not stated)	-0.1&-0.6	0.22&0.26&0.34&-0.63
CC(=O)Nc1ccc(C(=O)O)cc1	0.1	x
O=C1c2ccc(O)c(O)c2C(=O)c2c(O)ccc(O)c21	1.6	-1.1
Cc1cc(-c2ccccc2)nnc1NCCN1CCOCC1	-3.2&-0.5	-0.37&-0.048&-0.45
C[C@@H]1CC2C3C[C@H](F)C4=CC(=O)C=C[C@]4(C)[C@@]3(F)[C@@H](O)C[C@]2(C)[C@@]1(O)C(=O)COC(=O)C(C)(C)C (some centres not stated)	-2.2	-0.049&-1.2
O=C1CCCc2cc(S(=O)(=O)N3CCC(C(=O)NC4CCCCCC4)CC3)ccc2N1	-2.8	x
COc1ccccc1-c1cccc(C(=O)O)c1	-3.5	1.7
CCOC(=O)c1ccc(N)cc1	-1.1&-4.1	0.5&-0.22&-0.036
CN1CCOC(c2ccccc2)c2ccccc2C1 (configuration not stated)	0.2&-0.1	0.18&-0.83&0.85
CN(C)CCOC(C)(c1ccccc1)c1ccccn1 (configuration not stated)	-0.3&-7.5	-0.44&0.33&-0.36&0.3
CC(C(=O)O)c1ccc(C(=O)c2cccs2)cc1 (configuration not stated)	0.9&0.2	-0.22&-0.61&-0.28
CCN(CC)CCNC(=O)c1cc(Cl)c(N)cc1OC	-1.4&0.2	0.35&0.004&-0.9&-0.062
CCCNC(C)C(=O)Nc1c(C)csc1C(=O)OC (configuration not stated)	-1.3	-0.18
O=C(CCNNC(=O)c1ccncc1)NCc1ccccc1	-2.0	0.26&0.69&-0.033&-1.4

Quoted at random: five compounds from above.
SMILES	BasE inh	KSHV LANA nucl
CCOC(=O)c1ccc(N)cc1	-1.1&-4.1	0.5&-0.22&-0.036
Cc1cc(-c2ccccc2)nnc1NCCN1CCOCC1	-3.2&-0.5	-0.37&-0.048&-0.45
Cc1nc2ccccn2c(=O)c1CCN1CCC(C(=O)c2ccc(F)cc2)CC1	0.6&-0.7	-0.12&-0.006&-0.23&0.36
O=C(CCNNC(=O)c1ccncc1)NCc1ccccc1	-2.0	0.26&0.69&-0.033&-1.4
C1CCC(C(CC2CCCCN2)C2CCCCC2)CC1 (configuration not stated)	-5.2&-6.4	-0.21&-0.22&1

Five entries from above, with two lines to a compound.
Values run as follows: BasE inh	KSHV LANA nucl
- CN(C(=O)CCCOc1ccc2[nH]c(=O)ccc2c1)C1CCCCC1
→ x	-0.69
- CN1CCOC(c2ccccc2)c2ccccc2C1 (configuration not stated)
→ 0.2&-0.1	0.18&-0.83&0.85
- C[C@@H](N)C1CCC(C(=O)Nc2ccncc2)CC1 (some centres not stated)
→ 1.2	-0.23
- COc1cc2c(cc1OC)C(=O)CC2
→ -0.5	0.86
- CCOC(=O)c1ccc(N)cc1
→ -1.1&-4.1	0.5&-0.22&-0.036

Next section:
SMILES	BasE inh	KSHV LANA nucl
CC(C)C(=O)Nc1cccc(C(F)(F)F)c1	4.2	-0.48
Cc1c(NC(=O)c2cccnc2)c(=O)n(-c2ccccc2)n1C	-1.3&-0.9	1.8&0.49
OCCN1CCN(CCCN2c3ccccc3Sc3ccc(Cl)cc32)CC1	-1.9&-3.9	0.54&-0.094&-1
COc1ccc(C(=O)NCc2ccc(OCCN(C)C)cc2)cc1OC	x	0.051&-0.17

Compound activity as filed in PubChem.

Only part of the results is shown; the hit share may differ from the screen's.
